Compound activity (PubChem BioAssay)
YB-1 expression – YB-1 expression inhibition | U2OS, qRT-PCR YB-1 vs CDIP delta delta Cp, 16 h; stronger effect = higher value; zero = DMSO, each unit about twofold | delta delta Cp (YB-1 minus CDIP) (test concentration not listed) | 0.37% of 30,000 active | AID 434959;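 active = delta delta Cp rounded down to an integer at or above 3, about 3 SD of DMSO wells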;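 also: higher means less YB-1 transcript or more CDIP transcript relative to DMSO; stock transfer was 100 nL into about 100 µL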
The depositor's hits bear a star.

SMILES	YB-1 expression
C[C@@H]1CN([C@@H](C)CO)C(=O)CCCn2nncc2CO[C@H]1CN(C)Cc1cccc(C(=O)O)c1	0.0326
CNC(=O)C1=C[C@@H](c2ccc(OC)cc2)C[C@@H](OCCCCO)O1	-0.0104
C[C@@H]1CN([C@@H](C)CO)C(=O)CCCn2cc(nn2)CO[C@@H]1CN(C)Cc1ccc(Cl)c(Cl)c1	0.296
C[C@H]1CN([C@@H](C)CO)C(=O)CCCn2nncc2CO[C@@H]1CN(C)Cc1cccc2c1OCCCO2	0.0999
O=C(NO)c1ccc(C(=O)N/N=C/c2ccncc2Br)cc1	-0.516
O=C(CCCCCCC(=O)Nc1ccccc1O)N/N=C/C1=CCCCC1	-0.217
COC(=O)CCCCCCC(=O)N/N=C/c1ccc2ccccc2c1	-0.335
C[C@@H]1CN([C@@H](C)CO)C(=O)CCCn2cc(nn2)CO[C@H]1CN(C)C(=O)Nc1ccccc1F	0.355
C[C@@H]1CN([C@@H](C)CO)C(=O)CCCn2nncc2CO[C@H]1CN(C)Cc1ccccc1C(=O)O	0.00765
COC(=O)CCCCCCC(=O)N/N=C/c1cc(Br)cc([N+](=O)[O-])c1O	0.0912
COc1cccc(-c2cnc3c(c2)C(=O)N([C@H](C)CO)C[C@H](C)[C@H](CN(C)S(=O)(=O)c2ccc(F)cc2)O3)c1	-0.202
CCN(CC)c1ccc(/C=N/NC(=O)c2ccc(C(=O)NO)cc2)c(O)c1	0.428
CC(C)S(=O)(=O)NCC1CCN(Cc2cccc(OCCO)c2)CC1	0.112
COc1ccccc1S(=O)(=O)N(C)C[C@@H]1OCc2cn(nn2)CCCC(=O)N([C@H](C)CO)C[C@H]1C	-0.114
C[C@H](CO)N1C[C@H](C)[C@H](CN(C)S(=O)(=O)c2cccc(F)c2)Oc2ncc(/C=C/c3ccccc3)cc2C1=O	-0.0652
C[C@@H]1CN([C@@H](C)CO)C(=O)CCCn2cc(nn2)CO[C@@H]1CN(C)C(=O)Nc1ccc(-c2cccs2)cc1	0.0796
COC(=O)[C@@]1(Cc2ccccc2N=[N+]=[N-])N=C(c2ccc(OCCCO)cc2)O[C@H]1c1ccccc1N=[N+]=[N-]	-0.115
O=C(NO)c1ccc(C(=O)N/N=C/c2ccccc2C(=O)O)cc1	-0.28
C[C@@H]1CN([C@@H](C)CO)C(=O)CCCn2cc(nn2)CO[C@H]1CN(C)Cc1cccc2c1OCCCO2	-0.151
C[C@H]1CN([C@@H](C)CO)C(=O)CCCn2nncc2CO[C@@H]1CN(C)Cc1cccc(C(=O)O)c1	0.192

12 of the compounds above, bar-delimited.
compound | YB-1 expression
C[C@@H]1CN([C@@H](C)CO)C(=O)CCCn2nncc2CO[C@H]1CN(C)Cc1cccc(C(=O)O)c1 | 0.0326
CNC(=O)C1=C[C@@H](c2ccc(OC)cc2)C[C@@H](OCCCCO)O1 | -0.0104
C[C@@H]1CN([C@@H](C)CO)C(=O)CCCn2cc(nn2)CO[C@@H]1CN(C)Cc1ccc(Cl)c(Cl)c1 | 0.296
C[C@H]1CN([C@@H](C)CO)C(=O)CCCn2nncc2CO[C@@H]1CN(C)Cc1cccc2c1OCCCO2 | 0.0999
O=C(NO)c1ccc(C(=O)N/N=C/c2ccncc2Br)cc1 | -0.516
O=C(CCCCCCC(=O)Nc1ccccc1O)N/N=C/C1=CCCCC1 | -0.217
COC(=O)CCCCCCC(=O)N/N=C/c1ccc2ccccc2c1 | -0.335
C[C@@H]1CN([C@@H](C)CO)C(=O)CCCn2cc(nn2)CO[C@H]1CN(C)C(=O)Nc1ccccc1F | 0.355
C[C@@H]1CN([C@@H](C)CO)C(=O)CCCn2nncc2CO[C@H]1CN(C)Cc1ccccc1C(=O)O | 0.00765
COC(=O)CCCCCCC(=O)N/N=C/c1cc(Br)cc([N+](=O)[O-])c1O | 0.0912
COc1cccc(-c2cnc3c(c2)C(=O)N([C@H](C)CO)C[C@H](C)[C@H](CN(C)S(=O)(=O)c2ccc(F)cc2)O3)c1 | -0.202
CCN(CC)c1ccc(/C=N/NC(=O)c2ccc(C(=O)NO)cc2)c(O)c1 | 0.428

The list continues.
SMILES	YB-1 expression
O=C(CCCCCCC(=O)Nc1ccccc1O)N/N=C/c1cccnc1Br	-0.217
C[C@@H]1CN([C@@H](C)CO)C(=O)CCCn2nncc2CO[C@H]1CN(C)S(=O)(=O)c1ccc(-c2ccccc2)cc1	-0.293
COCCOC(=O)N1C(=O)[C@@]2(c3ccccc31)[C@H](C(=O)Nc1nc3ccccc3s1)[C@H]1C(=O)O[C@H](c3ccccc3)[C@H](c3ccccc3)N1[C@@H]2c1ccc(OCCO)cc1	0.0806
COC(=O)CCCCCCC(=O)N/N=C/c1cccc(B(O)O)c1	-0.187
C[C@@H]1CN([C@H](C)CO)C(=O)CCCn2cc(nn2)CO[C@@H]1CN(C)C(=O)Nc1cccc(Oc2ccccn2)c1	-0.526
C[C@@H]1CN([C@@H](C)CO)C(=O)CCCn2cc(nn2)CO[C@@H]1CN(C)Cc1ccccc1C(=O)O	0.358
C[C@@H]1CN([C@H](C)CO)C(=O)CCCn2cc(nn2)CO[C@@H]1CN(C)C(=O)CCC(F)(F)F	0.0676
COC(=O)CCCCCCC(=O)N/N=C/c1ccc(N(C)CCO)cc1	-0.237
C[C@H](CO)N1C[C@H](C)[C@H](CN(C)C(=O)NC2CCCCC2)Oc2ncc(/C=C/c3ccccc3)cc2C1=O	-0.638
CC(C)NC(=O)[C@@]1(C)c2ccccc2C(=O)N(Cc2ccccc2)[C@H]1c1ccc(CO)cc1	-0.459
CN(CCO)c1ccc(/C=N/NC(=O)c2ccccn2)cc1	-0.327
C[C@H]1CN([C@@H](C)CO)C(=O)CCCn2cc(nn2)CO[C@@H]1CN(C)Cc1ccccc1C(=O)O	-0.025
COC(=O)CCCCCCC(=O)N/N=C/C=C/c1ccc(O)c(OC)c1	-0.113
C[C@@H]1CN([C@@H](C)CO)C(=O)CCCn2cc(nn2)CO[C@@H]1CN(C)C(=O)Nc1cccc2ccccc12	-0.754
C[C@@H]1CN([C@@H](C)CO)C(=O)CCCn2cc(nn2)CO[C@H]1CN(C)S(C)(=O)=O	-0.0448
O=C(CCCCCCC(=O)Nc1ccccc1O)N/N=C/c1ccc[nH]1	-0.487
O=C(CCCCCCC(=O)N/N=C/c1ccc(O)c(O)c1)NO	0.224
COc1cccc(NC(=O)N(C)C[C@H]2OCc3cnnn3CCCC(=O)N([C@@H](C)CO)C[C@@H]2C)c1	-0.205
C[C@@H]1CN([C@@H](C)CO)C(=O)CCCn2nncc2CO[C@@H]1CN(C)C(=O)c1ccncc1	-0.331
COc1cc2c(cc1OC)CN(C(=O)[C@H]1[C@@H]3C(=O)O[C@@H](c4ccccc4)[C@@H](c4ccccc4)N3[C@@H](c3ccccc3OCCO)[C@]13C(=O)Nc1ccc(C#CCCO)cc13)CC2	-0.562
C[C@H](CO)N1C[C@H](C)[C@H](CN(C)C(=O)Nc2ccc3c(c2)OCO3)Oc2ncc(/C=C/c3ccccc3)cc2C1=O	0.451
CN(C)CCCOc1ccc(/C=N/NC(=O)CCCCCCC(=O)Nc2ccccc2O)cc1	0.193
C[C@H]1CN([C@@H](C)CO)C(=O)CCCn2nncc2CO[C@@H]1CN(C)C(=O)Nc1ccc2c(c1)OCCO2	0.123
COc1ccc(CN(C)C[C@H]2OCc3cnnn3CCCC(=O)N([C@H](C)CO)C[C@@H]2C)cc1	-0.264
O=C(CCCCCCC(=O)Nc1ccccc1O)N/N=C/c1ccc(-c2ccccc2)cc1	-0.246
COc1cc2c(cc1OC)CN(C(=O)[C@@H]1[C@H]3C(=O)O[C@H](c4ccccc4)[C@H](c4ccccc4)N3[C@H](c3ccccc3OCCO)[C@@]13C(=O)Nc1ccc(C#CC4=CCCCC4)cc13)CC2	-0.118
O=C(NO)c1ccc(C(=O)N/N=C/c2ccc(CO)o2)cc1	-0.161
Cc1nc(S(=O)(=O)NC2CCN(Cc3ccc(OCCO)cc3)CC2)cn1C	-0.521
C[C@H](CO)N1C[C@H](C)[C@@H](CN(C)Cc2cccc(C(F)(F)F)c2)OCc2cn(nn2)CCCC1=O	-0.515
CCCN(C)C[C@@H]1OCc2cnnn2CCCC(=O)N([C@@H](C)CO)C[C@@H]1C	0.089
COc1cc2c(cc1OC)CN(C(=O)[C@@H]1[C@H]3C(=O)O[C@H](c4ccccc4)[C@H](c4ccccc4)N3[C@H](c3ccc(O)cc3)[C@@]13C(=O)Nc1ccc(C#CC4=CCCCC4)cc13)CC2	-0.496
O=C(NO)c1cccc(C(=O)N/N=C/c2ccccn2)c1	-0.114
C[C@@H]1CN([C@H](C)CO)C(=O)CCCn2nncc2CO[C@@H]1CN(C)Cc1ccc2c(c1)OCCN2C	0.569
O=C1O[C@@H](c2ccccc2)[C@@H](c2ccccc2)N2[C@@H](c3ccc(O)cc3)[C@]3(C(=O)Nc4ccc(C#CC5(O)CCCCCC5)cc43)[C@@H](C(=O)N3CCCCCCC3)[C@H]12	-0.112
C[C@@H]1CN([C@H](C)CO)C(=O)CCCn2cc(nn2)CO[C@H]1CN(C)Cc1ccccc1C(=O)O	-0.255
C[C@@H]1CN([C@H](C)CO)C(=O)CCCn2cc(nn2)CO[C@@H]1CN(C)Cc1ccncc1	0.154
Cc1ccccc1CN(C)C[C@@H]1OCc2cnnn2CCCC(=O)N([C@@H](C)CO)C[C@H]1C	-0.354
Cc1noc(C)c1S(=O)(=O)N(C)C[C@H]1OCc2cn(nn2)CCCC(=O)N([C@H](C)CO)C[C@H]1C	0.0461
O=C(CCCCCC(=O)Nc1ccccc1O)N/N=C/c1ccccc1OCCO	0.0832
C[C@H](CO)N1C[C@H](C)[C@@H](CN(C)Cc2ccc(Oc3ccccc3)cc2)OCc2cnnn2CCCC1=O	-0.367
O=C(CCCCC(=O)N/N=C\c1ccc2ccccc2n1)NO	0.0691
COc1ccc(O)c(/C=N/NC(=O)c2cccc(C(=O)NO)c2)c1	-0.369
O=S(=O)(NCC1CCN(Cc2ccc(OCCO)cc2)CC1)c1cc(C(F)(F)F)ccc1Cl	0.53
COc1cc(Br)c(/C=N/NC(=O)CCCCCCC(=O)O)cc1OC	0.195
C[C@H]1CN([C@@H](C)CO)C(=O)CCCn2nncc2CO[C@H]1CN(C)Cc1ccccc1	-0.212
O=S(=O)(N[C@@H]1CCCN(Cc2ccc(OCCO)cc2)C1)c1ccc(-c2ccccc2)cc1	-0.0092
COc1ccc([Si](C)(C)[C@H]2[C@H](CCO)O[C@@]3(C(=O)N(Cc4ccc(NC(=O)[C@H](C)O)cc4)c4ccccc43)[C@@H]2C)cc1	0.0841
Cc1ccsc1/C=N/NC(=O)c1ccccn1	0.201
C[C@H](CO)N1C[C@H](C)[C@H](CN(C)S(=O)(=O)c2ccc(C#N)cc2)Oc2ncc(C#Cc3ccc(C(F)(F)F)cc3)cc2C1=O	-0.559
O=C(O)CCCCCC(=O)N/N=C/c1ccccc1Cl	-0.64
COC(=O)CCCCCCC(=O)N/N=C/c1nccs1	-0.151
CC(C)CN1C(=O)[C@@]2(c3ccc([N+](=O)[O-])cc3)CC(=O)N(CC3C4CC5CC(C4)CC3C5)[C@@H]2c2ccc(CO)cc21 (stereo partly drawn)	-0.00121
O=C(CCCCCCC(=O)Nc1ccccc1O)N/N=C/c1coc2ccccc2c1=O	-0.529
O=C(O)CCCCCCC(=O)N/N=C/c1cc(Br)cs1	-0.0249
COc1cc(Cl)c(/C=N/NC(=O)c2cccc(C(=O)NO)c2)c(Cl)c1OC	-0.265
O=C(N/N=C/c1ccc(O)cc1Br)c1ccccn1	0.0176
Cc1ccccc1CN(C)C[C@@H]1OCc2cnnn2CCCC(=O)N([C@H](C)CO)C[C@H]1C	0.151
O=C(NCCN1CCOCC1)[C@@]1(CCS(=O)(=O)c2ccccc2)COC(c2ccc(OCCCO)cc2)=N1	-0.166
COc1ccc([C@H]2C=C(C(=O)NCc3ccccc3)O[C@@H](OCc3ccc(CO)cc3)C2)cc1	3.3*
O=C(N/N=C/c1ccc(-c2ccccc2)c(F)c1)c1ccccn1	-0.196
(continued)
SMILES	YB-1 expression
C[C@H](CO)N1C[C@H](C)[C@@H](CN(C)S(=O)(=O)c2ccc3ccccc3c2)OCc2cn(nn2)CCCC1=O	0.154
C[C@H](CO)N1C[C@H](C)[C@H](CN(C)C(=O)Nc2ccccc2F)OCc2cn(nn2)CCCC1=O	0.128
C[C@H](CO)N1C[C@H](C)[C@H](CN(C)Cc2cccc(C(F)(F)F)c2)Oc2ncc(C#CCN(C)C)cc2C1=O	0.113
C[C@H](CO)N1C[C@H](C)[C@H](CN(C)S(=O)(=O)c2ccc3c(c2)OCCCO3)OCc2cnnn2CCCC1=O	-0.406
COc1ccc(-c2cnc3c(c2)C(=O)N([C@H](C)CO)C[C@H](C)[C@H](CN(C)S(=O)(=O)c2ccccc2)O3)cc1	0.828
C[C@H](CO)N1C[C@H](C)[C@@H](CN(C)C(=O)Nc2cccc(C(F)(F)F)c2)OCc2cn(nn2)CCCC1=O	-0.207
CCCC(O)C#Cc1cnc2c(c1)C(=O)N([C@H](C)CO)C[C@H](C)[C@H](CN(C)C)O2 (stereo partly drawn)	-0.242
O=C(N/N=C/c1ccc[nH]1)c1ccccc1O	-0.263
C[C@H](CO)N1C[C@H](C)[C@H](CN(C)C(=O)Nc2cccc3ccccc23)OCc2cn(nn2)CCCC1=O	0.045
O=C1O[C@H](c2ccccc2)[C@H](c2ccccc2)N2[C@H]1[C@@H](C(=O)N1CCN(c3ncccn3)CC1)[C@]1(C(=O)Nc3ccc(C#CC4=CCCCC4)cc31)[C@H]2c1ccccc1OCCO	-0.122
CCCC(O)C#Cc1cnc2c(c1)C(=O)N([C@H](C)CO)C[C@H](C)[C@H](CN(C)S(=O)(=O)c1ccc(C)cc1)O2 (stereo partly drawn)	-0.18
C[C@H](CO)N1C[C@H](C)[C@H](CN(C)C(=O)Nc2ccc(F)cc2)Oc2ncc(-c3cccc(F)c3)cc2C1=O	-0.339
O=C(CCCCCCC(=O)Nc1ccccc1O)N/N=C/c1ccccc1Cl	-0.501
COc1cccc(NC(=O)N(C)C[C@H]2OCc3cn(nn3)CCCC(=O)N([C@@H](C)CO)C[C@@H]2C)c1	-0.0206

Not all compounds are listed. The share of hits here may be higher or lower than overall.
